UCH37 DUB inh – blocks the human deubiquitinase UCH37. Q9Y5K5. purified proteasome/UCH37, Ub-AMC cleavage fluorescence. inhibition, % (no concentration beside the values). actives 0.33% (n = 330,000);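 active means mean of two replicates above 20%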;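 further: 0% = compound-free wells with enzyme and 100% = wells lacking proteasome; stock transfer was 100 nL into about 20 µL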
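system = Proteasome-associated human UCH37 deubiquitinase | amount = 0.15 nM proteasome as dispensed | medium = pH 7.4 Tris-HCl (50 mM) with ovalbumin, ATP-MgCl2, DTT | incubation = 30 min preincubation with enzyme, 25 min cleavage at room temperature | detection = AMC fluorescence 355/460 nm | read-out basis = percent inhibition | controls = no-proteasome and no-compound wells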
Vif TR-FRET – HIV-1 Vif–A3G interaction blockers – biochemical, TR-FRET, GST-Vif 1-94, biotin-A3G peptide, dose response retest, primary screen (AID 1117319); TR-FRET GST-Vif / biotin-A3G peptide binding; higher % means a stronger effect; test concentration not given here; strong numbers were not always called active; inhibition, %, or IC50 in µM where a hit was titrated; actives 0.57% (n = 260,000);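 active means above the screen mean plus three standard deviations and confirmed in dose response; inconclusive means results disagree or hit not tested in dose response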;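 further: Vif residues 1-94 fused to GST binding biotinylated APOBEC3G peptide 110-148; 0% = full assay without inhibitor and 100% = GST in place of GST-Vif; retest series ran down from 100 µM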
FGF22 binding – shifts melting point of recombinant human FGF22; Q9HCT0; recombinant FGF22 thermal shift, SYPRO orange fluorescence; percent of sucrose octasulfate shift, DMSO zero; calls only at 9.99 µM; actives 1.5% (n = 340,000);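 active means melting point raised past a set limit in the mean and every replicate; inconclusive means no clear call; three in four hits are not shown here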
Target sequence (Q9HCT0 whole entry, looked up): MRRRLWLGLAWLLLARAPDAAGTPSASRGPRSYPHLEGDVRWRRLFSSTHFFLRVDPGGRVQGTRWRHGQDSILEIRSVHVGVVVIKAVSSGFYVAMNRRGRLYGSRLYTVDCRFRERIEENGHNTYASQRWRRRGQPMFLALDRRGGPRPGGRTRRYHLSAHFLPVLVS
RanGTP-Impb inh – disruptors of Ran-importin-beta complex formation – biochemical, FRET, CFP-Ran, YFP-importin-beta, homogeneous, primary screen; actives 1.1% (n = 300,000); inhibition, % (test concentration not listed); AID 2216; cell-free CFP-Ran/YFP-importin-beta FRET ratio;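 active means most replicates above 15%; inconclusive means exactly half above 15%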;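 further: 0% = DMSO wells and 100% = Ran loaded with GDP instead of GTP; wells of about 40 µL received 100 nL stock; the first replicate is given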
HNF4A DNA FP – change in binding of human HNF4 alpha to DNA | P41235 | HNF4a-FITC DNA binding, fluorescence polarization, 1 h | activity change, % at 10 µM | actives 0.3% (n = 360,000) | AID 1224865; in the data active means activity change above about 30%, passing the limit was not always enough;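 further: controls were the assay level and a saturating level of protein; the project sought stronger binding though the title names inhibitors; some compounds called inactive have numbers as strong as hits; positive values seem to mean higher polarization but the record does not say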
E coli growth – E. coli growth inhibition; Escherichia coli growth, OD600, 23 h; hits give low values; OD600 absorbance (concentration not given with the values); actives 0.21% (n = 330,000); AID 1053175;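 active means OD600 absorbance below the run mean of sample wells minus 3.6 SD, in any replicate, cut at about 0.56 in these data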;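 further: stock transfer was 300 nL into about 60 µL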
MLL AF4-AF9 inh – inhibitors of human MLL-AF4/AF9 interaction | AlphaScreen, biotin-AF4 peptide binding to FLAG-AF9 | P42568 | actives 0.47% (n = 350,000) | inhibition, % at 10 µM | AID 651704;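 active means every replicate reaching a set inhibition limit, whatever the replicate mean, cut at about 25% in these data; inconclusive means mean inhibition reaches that limit but some replicates miss it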;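 further: 0% = plate neutral control median and 100% = total signal loss; the record names both 10 and 1 µM as test concentration; the first replicate is given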
Target sequence (P42568 whole entry, looked up): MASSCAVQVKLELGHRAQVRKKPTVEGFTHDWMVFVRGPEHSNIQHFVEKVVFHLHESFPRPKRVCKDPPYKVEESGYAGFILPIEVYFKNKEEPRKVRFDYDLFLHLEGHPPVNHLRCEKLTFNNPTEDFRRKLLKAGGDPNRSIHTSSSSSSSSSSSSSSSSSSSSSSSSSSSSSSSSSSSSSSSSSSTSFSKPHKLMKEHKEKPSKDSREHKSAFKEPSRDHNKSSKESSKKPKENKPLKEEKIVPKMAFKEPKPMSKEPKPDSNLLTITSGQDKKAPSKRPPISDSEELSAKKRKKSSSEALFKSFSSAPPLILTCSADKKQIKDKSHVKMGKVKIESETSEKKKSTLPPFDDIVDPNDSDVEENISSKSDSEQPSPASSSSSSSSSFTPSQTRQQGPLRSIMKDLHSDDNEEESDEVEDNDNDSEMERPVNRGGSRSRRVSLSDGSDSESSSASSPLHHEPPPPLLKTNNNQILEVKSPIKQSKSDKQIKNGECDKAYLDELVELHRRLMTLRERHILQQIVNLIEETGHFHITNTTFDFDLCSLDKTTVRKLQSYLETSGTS
Numbers without * were called inactive; i = inactive; ? = inconclusive; · = no result given. These rows are one share of the data (hit frequency here may not be typical).

Sequence of screens – UCH37 DUB inh	Vif TR-FRET	FGF22 binding	RanGTP-Impb inh	HNF4A DNA FP	E coli growth	MLL AF4-AF9 inh
- CCC(C(=O)NCCc1ccc(S(N)(=O)=O)cc1)c1ccccc1 (stereo unspecified)
→ 0.5	·	i	2.6	-0.2	0.661	-5.7
- Cc1oc(-c2cccc(C(F)(F)F)c2)nc1CN1CCC[C@H]1CO
→ -3.4	·	i	-1.3	3.4	0.657	0.9
- CCN(C(=O)COC(=O)c1cccc2ccccc12)c1c(N)n(Cc2ccccc2)c(=O)[nH]c1=O
→ 1.9	·	i	·	2.4	0.651	-0.7
- C/C(=N\N=c1/sc2ccccc2n1C)c1ccccn1
→ ·	·	i	0.3	3.3	·	1.7
- COc1ccc(N2C(=O)CCC2=O)cc1
→ 1.5	?	·	-0.2	-0.5	0.672	·
- O=C(c1ccccc1)N1CCC(O)(c2ccc3c(c2)OCO3)CC1
→ 3.6	2.2%	·	5.9	0.0	0.708	·
- O=C(CSc1n[nH]c(=O)[nH]c1=O)Nc1ccc(Br)cc1Br
→ 2.3	0.3%	i	·	-0.1	0.674	-6.4
- CSc1nnc(-c2cccc(NC(=S)NN)c2)o1
→ 2.1	1.9%	i	2.4	0.2	0.682	-0.3
- O=C(Nc1nc(-c2nc3ccccc3s2)cs1)c1ccco1
→ 1.4	-23.1%	i	-0.1	26.8	0.76	-13.3
- Cc1cn([C@H]2C[C@H](O)[C@@H](CNCc3ccc(Oc4cc(-n5cccn5)ncn4)cc3)O2)c(=O)[nH]c1=O
→ ·	0.5%	i	·	-4.7	·	-3.2
- Cn1nc(C(=O)OCC(=O)Nc2ccc3ccccc3c2)c2ccccc2c1=O
→ 2.7	15.7%	i	5.3	3.9	0.713	0.7
- CC(=O)c1ccccc1NC(=O)CSCc1nc2sc(C)c(C)c2c(=O)[nH]1
→ 3.7	-6.5%	i	·	4.5	0.706	-10.9
- O=C(c1ccccc1)N1CCN2C(=O)c3ccccc3C12c1ccc(Cl)cc1 (stereo unspecified)
→ 1.3	9.4%	·	0.9	-2.1	0.756	·
- COc1ccc(C(=O)N2CCC2)cc1S(=O)(=O)NCc1ccc(Cl)cc1
→ -1.8	·	i	·	0.0	0.688	0.0
- O=C(COc1coc(CN2CCc3ccccc3C2)cc1=O)Nc1ccc([N+](=O)[O-])cc1
→ 3.4	0.6%	i	4.7	-0.7	0.723	-5.4
- Cc1cc(C)cc(C(O)c2ncc(-c3cccc(C(F)(F)F)c3)[nH]2)c1 (stereo unspecified)
→ ·	·	i	·	0.6	·	5.8
- Cc1oc2cc3oc(=O)cc(C)c3cc2c1C
→ -7.5	-8.3%	i	1.3	3.7	0.685	-1.3
- COc1ccc(NC(=O)C2CCCN(S(=O)(=O)c3c(C)[nH]c(=O)[nH]c3=O)C2)cc1 (stereo unspecified)
→ 1.9	?	·	?	-3.2	0.655	·
- CN1CCCC1=Nc1ccccc1
→ ·	2.5%	i	·	3.3	·	-2.1
- CC(O)(c1cccnc1)c1nc(-c2ccoc2)cs1 (stereo unspecified)
→ ·	·	i	·	1.9	·	3.2
- N#CC1=C(N)C(C#N)(C#N)C(c2cccnc2)C2CN(C(=O)OCc3ccccc3)CC=C12 (stereo unspecified)
→ -3.4	?	·	7.3	2.6	0.738	·
- Cc1c(NC(=O)C(C)OC(=O)CC2CC3CCC2C3)c(=O)n(-c2ccccc2)n1C (stereo unspecified)
→ 0.5	-2.8%	i	-2.9	-0.2	0.703	-7.6
- CCCCN(C)C(=O)C1CCN(CCCc2ccccc2)CC1
→ 1.7	2.8%	·	-6.4	7.6	0.715	·
- Cc1nn(C(C)C(=O)NCCN2CCCC2)c(=O)c2c1sc1ccccc12 (stereo unspecified)
→ -2.3	·	i	-4.5	2.2	0.683	2.8
- CCNC(=O)NC(=O)C(C)OC(=O)C1CCN(S(=O)(=O)c2ccc(C)c(C)c2)CC1 (stereo unspecified)
→ 6.0	-4.8%	i	5.3	-0.7	0.714	0.9
- COc1ccc(C(=O)NC(C)C2CC3CCC2C3)c(OC)c1 (stereo unspecified)
→ ·	·	i	-1.5	-0.2	·	-2.0
- CN(CC(=O)Nc1ccc(Cl)c(C(F)(F)F)c1)C(=O)COC(=O)C1CC2CCCC(C1)C2=O (stereo unspecified)
→ 1.8	-1.0%	i	·	-1.5	0.645	6.6
- CC(C)CCNC(=S)Nc1ccc(Br)cc1
→ 3.8	-0.4%	i	3.7	5.6	0.592	-1.5
- O=C(NCCCCNC(=O)c1cccnc1)c1cccnc1
→ 0.8	1.8%	·	0.6	-1.8	0.671	·
- Cc1ccc(C(=O)NC2CC(C)(C)NC(C)(C)C2)cc1C
→ 2.0	14.6%	·	3.7	2.2	0.696	·
- C=CC[C@H](CC(=O)NCCO)C(=O)N[C@H](COC(=O)[C@H](CC=C)CC(=O)OC(C)(C)C)c1ccccc1
→ 0.8	·	i	·	2.8	·	-2.1
- Nc1c(C(=O)CSc2nccn2-c2ccc(Cl)cc2)c(=O)[nH]c(=O)n1C1CC1
→ 1.0	-3.5%	i	·	0.6	0.704	-6.2
- COc1ccc(S(=O)(=O)N2CCSC2c2ccccc2)cc1 (stereo unspecified)
→ 2.7	-0.1%	·	0.1	2.4	0.701	·
- O=C(c1ccc(OC2CCN(Cc3ccccc3OC(F)F)CC2)cc1)N1CCCC1
→ 4.3	·	i	1.7	-0.2	0.682	-0.5
- CN(Cc1ccccc1)S(=O)(=O)c1ccc(N2CCCC2=O)cc1
→ 1.1	-1.5%	i	·	-0.7	0.711	-1.0
- Cc1c(C(=O)OCC(=O)N(C)c2ccccc2)oc2ccccc12
→ 1.0	·	i	?	-3.2	0.71	-2.9
- CCCCn1c(=O)[nH]c(=O)c2c1nc(-c1ccc(OCC)cc1)n2CC
→ -105.6	·	i	-0.3	-2.9	0.695	0.9
- COc1cccc(CNC(=O)CN2C(=O)NC(c3ccccc3)(c3ccccc3)C2=O)c1
→ -2.1	-3.9%	i	·	1.6	0.72	-16.0
- O=C(C[C@H]1C=C[C@@H](NS(=O)(=O)c2ccccc2)[C@@H](CO)O1)NCc1ccc(Cl)c(Cl)c1
→ ·	·	i	·	-0.2	·	0.1
- Cc1cccc2[nH]c3c(=O)n(CCN4CCNCC4)cnc3c12
→ -14.0	-8.4%	·	-2.8	0.0	0.744	·
- CCC1CCC2(CC1)NC(=O)N(CC(=O)Nc1ccc(OC)cc1)C2=O (stereo unspecified)
→ 0.0	-4.7%	i	·	-1.5	0.657	-15.0
- Cc1cccc2cc(CN(CC3CCCO3)C(=O)c3cccnc3)c3nnnn3c12 (stereo unspecified)
→ 0.4	3.5%	·	3.4	-2.2	0.696	·
- COc1ccc(NC(=O)c2c(-c3ccccc3Cl)noc2C)c(OC)c1
→ 5.4	16.0%	·	?	2.0	0.711	·
- COc1cc([N+](=O)[O-])ccc1-c1ccc(/C=N/NC(=O)c2ccccc2O)o1
→ ·	1.4%	i	-23.0	·	·	·
- CCCn1c(SCC(=O)N2CCCCC2)nnc1-c1ccco1
→ 1.0	-3.3%	·	3.9	0.2	0.726	·
- N#CCCN(C(=O)COC(=O)c1ccc(S(=O)(=O)N2CCOCC2)cc1)c1ccccc1
→ 2.0	-4.3%	i	·	4.0	0.675	-1.7
- Cc1cc2oc(=O)cc(CN3CCCC3)c2cc1C
→ ·	·	i	·	-1.1	·	-1.2
- C=CCn1c(SCC(=O)Nc2ccc(-c3nc4ccc(C)cc4s3)cc2)nnc1-c1ccncc1
→ -217.7	·	i	3.4	36.3	0.713	-3.8
- COc1ccccc1/C=C/C(=O)NCC(=O)N/N=C(/C)c1ccco1
→ ·	·	i	7.5	-1.2	·	2.1
- Clc1ccc(NCc2cccnc2)cc1
→ 3.5	3.5%	i	-3.2	3.4	0.643	1.7
- O=C(NCc1ccccc1)c1noc2c1CCCCC2
→ 2.7	9.1%	·	-2.4	-0.7	0.604	·
- CCCCN(C(=O)CSc1nnc(-c2ccc(OC)cc2)n1C(C)C)c1c(N)n(Cc2ccccc2)c(=O)[nH]c1=O
→ 3.6	·	i	-2.2	0.4	0.747	0.0
- CCOC(=O)COc1cccc2c(=O)n(CC(=O)N3CCCCC3)ccc12
→ -0.8	-4.6%	i	?	-4.5	0.701	1.6
- COCCNC(=O)c1cc(-c2ccc(Cl)c(Cl)c2)on1
→ 1.6	-6.5%	i	-1.0	-0.2	0.774	-9.9
- O=C(Nc1ccc(Br)cn1)C1CCCN1S(=O)(=O)c1ccccc1 (stereo unspecified)
→ 29.5*	4.1%	·	0.8	-1.5	0.695	·
- COc1cc(O)c(CC=C(C)C)c(O)c1C(=O)CCc1ccc(O)cc1
→ 5.5	·	i	0.5	5.4	0.675	5.0
- Cc1cccc(S(=O)(=O)C(C#N)c2nc3ccccc3nc2N2CCOCC2)c1 (stereo unspecified)
→ -0.2	8.8%	i	6.4	1.5	0.732	5.0
- COc1ccc(CNC(=S)Nc2ccc(OC)cc2)cc1
→ -1.1	5.4%	·	1.0	1.7	0.695	·
- COCCNc1c(-c2ccc(OC)c(OC)c2)nc2ccc(Cl)cn12
→ -26.9	·	i	5.2	0.7	0.681	9.6
- COC(=O)c1c(C)[nH]c(C)c1C(=O)c1ccccc1Cc1ccccc1
→ 1.3	·	i	-0.9	2.1	0.717	-3.3

Complete entries, quoted from the list:
Cc1cccc2cc(CN(CC3CCCO3)C(=O)c3cccnc3)c3nnnn3c12 (stereo unspecified) as listed: UCH37 DUB inh = 0.4; Vif TR-FRET = 3.5%; FGF22 binding = ·; RanGTP-Impb inh = 3.4; HNF4A DNA FP = -2.2; E coli growth = 0.696; MLL AF4-AF9 inh = ·
COc1ccccc1/C=C/C(=O)NCC(=O)N/N=C(/C)c1ccco1 as listed: UCH37 DUB inh = ·; Vif TR-FRET = ·; FGF22 binding = i; RanGTP-Impb inh = 7.5; HNF4A DNA FP = -1.2; E coli growth = ·; MLL AF4-AF9 inh = 2.1

New compounds follow.
Sequence of screens – UCH37 DUB inh	Vif TR-FRET	FGF22 binding	RanGTP-Impb inh	HNF4A DNA FP	E coli growth	MLL AF4-AF9 inh
- CN(C)c1cc(-c2ccccc2)nc(N)n1
→ 7.6	0.1%	i	-3.1	1.2	0.747	-0.8
- Oc1ccccc1CNc1nc2ccccc2n1CCN1CCCCC1
→ 2.2	1.6%	i	?	1.6	0.709	7.7
- CC(=O)[C@@]12O[C@@H]1C[C@H]1[C@@H]3CC[C@H]4C[C@@H](O)CC[C@]4(C)[C@H]3CC[C@@]12C
→ 3.4	0.8%	i	-2.4	0.6	0.678	0.0
- O=C(Nc1ccc(Cl)cc1)C1CCN(C(=O)c2ccco2)CC1
→ -0.5	·	i	-2.1	1.5	0.616	-14.2
- CCOC(=O)N1CCN(C2=C(NS(=O)(=O)c3ccccc3)C(=O)c3ccccc3C2=O)CC1
→ 8.0	·	i	3.7	1.1	0.691	26.4*

High-throughput results deposited in PubChem by several laboratories.
